CSC inhib: cancer stem cell inhibition; cancer stem cell-like cells viability, luminescence; inhibition, % at 7.5 µM; 300,000 tested, 1.1% active;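 active = mean at 75% or more and at least half the replicates too; inconclusive = mean and replicates disagree; tested in HMLE shEcad cells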;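 also: 0% = median of negative and 100% = median of positive control wells; the first replicate is given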
PABP polyA inh: PABP-poly(A) binding inhibition; P11940; PABP-poly(A) RNA binding, fluorescence polarization; inhibition, % at 35 µM; 290,000 tested, 1% active; AID 2014;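 active = 50% or more with normal probe brightness, or confirmed in later tests; inconclusive = above 50% with abnormal brightness, or retests that disagree; inactive = below 50% or failed in later tests; about a fifth of its hits are not listed in these tables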;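 also: calls also rest on retests at 20 µM and on dose response follow-up; controls were probe without protein and protein plus probe with vehicle; some compounds called inactive have numbers as strong as hits; many hits fall short of the cut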
Target sequence (P11940 whole entry, looked up): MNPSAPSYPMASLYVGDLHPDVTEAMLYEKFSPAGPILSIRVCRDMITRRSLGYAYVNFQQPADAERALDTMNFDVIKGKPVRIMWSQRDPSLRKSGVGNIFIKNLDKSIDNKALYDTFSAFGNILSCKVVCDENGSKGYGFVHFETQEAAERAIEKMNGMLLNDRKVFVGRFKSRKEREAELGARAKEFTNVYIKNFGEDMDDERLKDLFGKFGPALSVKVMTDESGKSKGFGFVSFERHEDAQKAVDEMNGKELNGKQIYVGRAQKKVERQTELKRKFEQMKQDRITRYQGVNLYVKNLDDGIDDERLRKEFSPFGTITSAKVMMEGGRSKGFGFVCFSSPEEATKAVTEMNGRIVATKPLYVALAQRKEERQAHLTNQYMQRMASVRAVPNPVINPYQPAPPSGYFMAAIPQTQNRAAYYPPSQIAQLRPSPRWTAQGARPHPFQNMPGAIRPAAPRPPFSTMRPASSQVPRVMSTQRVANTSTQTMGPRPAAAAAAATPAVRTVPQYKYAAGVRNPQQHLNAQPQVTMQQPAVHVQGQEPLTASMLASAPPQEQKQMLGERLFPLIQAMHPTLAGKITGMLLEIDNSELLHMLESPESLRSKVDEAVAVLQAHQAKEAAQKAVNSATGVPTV
MT1-MMP act inh: MT1-MMP (human) activation inhibition; AID 651647; P50281; GFP/RFP ratio change, % at 20 µM; 360,000 tested, 0.061% active; HT1080 RFP-PRO-GFP cells, GFP/RFP ratio fluorescence, overnight; percent of plate control window, DMSO zero;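 active = GFP/RFP ratio change of at least 30% with cell ATP level not reduced by more than half and red fluorescence within 50% of control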; also: strong numbers were not always called active
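system = RFP-PRO-GFP reporter HT1080 cells | dosing = 20 µM single dose, 1% DMSO | timing = overnight cell settling, then overnight compound exposure, 37 °C, 5% CO2 | read-out basis = GFP/RFP fluorescence ratio | controls = DMSO and RFP-L50D-GFP cell wells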
Rce1 inhib: blocks yeast Ras-converting enzyme; 290,000 tested, 0.27% active; Q03530; yeast membranes, quenched prenylated peptide cleavage fluorescence; calls only;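 active = fall in fluorescence gain of 50% or more versus controls, with final raw signal at or below 3038400; inconclusive = same 50% fall but final raw signal above 3038400; inactive = fall in fluorescence gain under 50%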;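 also: plate controls were neutral control wells for no effect and wells lacking membranes for full effect; tested at 10 µM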
Target sequence (Q03530 whole entry, looked up): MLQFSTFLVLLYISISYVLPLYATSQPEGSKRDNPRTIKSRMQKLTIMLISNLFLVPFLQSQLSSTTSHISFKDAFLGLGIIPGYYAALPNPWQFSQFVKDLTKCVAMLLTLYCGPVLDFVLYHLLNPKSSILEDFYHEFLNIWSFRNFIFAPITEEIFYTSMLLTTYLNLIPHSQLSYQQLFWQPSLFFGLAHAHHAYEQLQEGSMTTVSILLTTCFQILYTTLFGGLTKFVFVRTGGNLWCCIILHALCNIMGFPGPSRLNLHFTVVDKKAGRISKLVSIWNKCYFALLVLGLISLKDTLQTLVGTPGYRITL
HIV Env fusion: inhibitors of HIV Env-mediated cell fusion. HeLa-JRFL Env/CEM21 cell fusion, luciferase. inhibition, % at 12.3 µM. 360,000 tested, 1.1% active. AID 651610;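 active = mean replicate inhibition score of at least 50 and every replicate individually at or above 50; inconclusive = only one of the two criteria met; inactive = mean below 50 and not all replicates reaching 50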;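 also: 0% = plate neutral controls and 100% = maraviroc near 300 nM; one replicate is shown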
Yeast UUG start: yeast start codon fidelity modulation; AID 602363; S. cerevisiae UUG-firefly luciferase reporter, luminescence/redox ratio; activity score, % at 18.7 µM; 350,000 tested, 0.13% active;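 active = replicate mean at a twofold rise or more, about +100% in these data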;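 also: firefly luciferase made from a UUG start codon reports start codon fidelity; reporter light over untreated wells divided by growth signal over untreated wells; some hits fall short of that in this replicate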
eIF4H inh: inhibitors of RNA binding by human eIF4H. eIF4H fluorescence polarization binding assay. AID 2012. 290,000 tested, 0.94% active. inhibition, % at 35 µM. Q15056;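 active = 50% or more with normal probe brightness, or confirmed in later tests; inconclusive = above 50% with abnormal brightness, or retests that disagree; inactive = below 50% or failed in later tests; about a fifth of its hits are not listed in these tables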;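 also: calls also rest on retests at 20 µM and on dose response follow-up; 0% = protein and probe with vehicle and 100% = probe without protein; strong numbers were not always called active; many hits fall short of the cut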
eIF4H inh retest: also measured in eIF4H inh; calls as there; inhibition, %; compound at 20 µM; confirmation average;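 mean of two retest wells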
PABP polyA inh retest: also measured in PABP polyA inh; calls as there; inhibition, %; compound at 20 µM; confirmation repeats;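 mean of two retest wells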
MT1-MMP act inh RFP: also measured in MT1-MMP act inh; calls as there; RFP signal change, %; measured here: RFP expression control read;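 0 = vehicle wells; hits needed this value within 50% of zero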
Active calls of the source: *; i = inactive; ? = inconclusive; . = no result given.

SMILES | CSC inhib | PABP polyA inh | MT1-MMP act inh | MT1-MMP act inh RFP | Rce1 inhib | HIV Env fusion | Yeast UUG start | eIF4H inh | others
Cn1c(N)c(C(=O)COC(=O)Cc2cccc(C(F)(F)F)c2)c(=O)n(C)c1=O | -17 | . | 1 | 1 | . | . | 19 | .
CCOC(=O)C1=C(C)Nc2nnnn2C1c1cccnc1 (configuration not stated) | 6 | -11 | 2 | 11 | i | -22 | -13 | -3
CCOC(=O)C(C(=O)OCC)C(=O)c1cc(OC)c(OC)c(OC)c1 | -2 | -6 | 1 | 4 | i | -15 | -10 | -5
COc1cccc(C(=O)NCCS(=O)(=O)N2CCN(c3ccccc3)CC2)c1OC | . | . | -6 | 4 | . | 11 | 2 | .
COc1ccc(Cl)cc1S(=O)(=O)n1cnc2ccccc21 | 0 | 4 | -2 | 4 | i | . | -12 | 4
CCOC(=O)C1CCCN(C(=O)COc2ccc(N(C)S(=O)(=O)c3ccc(F)cc3)cc2)C1 (configuration not stated) | -2 | -7 | 6 | 1 | i | -12 | 13 | 0
CC(C)NC[C@H](O)COc1ccc(CC(N)=O)cc1 | -6 | . | -6 | 2 | . | . | -15 | .
COCCNC(=S)N(c1ccccc1)C(C)C | 6 | 70 | 2 | 2 | i | -13 | -12 | 2.5* | eIF4H inh retest=78*;PABP polyA inh retest=38
NC(=O)CC[C@@H]1NC(=O)[C@H](Cc2ccc(O)cc2)NC(=O)c2cc([N+](=O)[O-])cc(F)c2OCC[C@@H](C(N)=O)NC1=O | -16 | 2 | -1 | 4 | i | 14 | -4 | -10
O=C(CN(c1ccccc1)S(=O)(=O)c1ccccc1[N+](=O)[O-])Nc1ccccc1C(=O)N1CCOCC1 | 3 | -10 | -2 | 1 | i | 4 | . | -3
CC(C)c1ccc(N2C(=NC(=O)C3CC3)SC3CS(=O)(=O)CC32)cc1 (configuration not stated) | 6 | 0 | . | . | i | -1 | -24 | 2
COc1cc(OC)nc(NC(=O)NS(=O)(=O)c2ccc(OC(F)(F)F)cc2)n1 | -16 | -8 | 0 | 1 | i | . | -12 | -5
c1ccc2c(NCC3CCCO3)nc(N3CCOCC3)nc2c1 (configuration not stated) | -18 | -5 | 10 | 4 | . | 4 | -9 | -3
O=S(=O)(c1ccc(Cl)c2ccccc12)N1CCCC1 | -3 | -2 | -9 | -5 | i | -10 | . | -4
COCc1c(Br)c(C)nc2sc3c(=O)[nH]nnc3c12 | . | 14 | 8 | -4 | i | 3 | -14 | 6
CCOc1ccc2nc(N3CCOCC3)nc(C)c2c1 | -10 | 15 | -10 | -2 | i | . | -17 | -11
CC(C(=O)N1CCN(C(=O)c2ccco2)CC1)N1C(=O)NC2(CCCCC2C)C1=O (configuration not stated) | -15 | . | 0 | 4 | . | . | -3 | .
CN(C)CCCNC(=O)N1c2ccccc2C=Cc2ccccc21 | -2 | 6 | -2 | 1 | i | 0 | 0 | 12
COC(=O)C1=C(N)Oc2cc(C)n(C)c(=O)c2C1c1ccc(Cl)c(Cl)c1 (configuration not stated) | -13 | -11 | 6 | 2 | i | . | -19 | -10
CC(=O)Nc1nc2c(ccc3ccccc32)s1 | 2 | 45 | 0 | 1 | i | -116 | -58 | 2
COc1cccc(CN(C)C(=O)Cc2c[nH]c3ccccc23)c1 | -1 | -8 | 3 | 1 | i | -13 | -5 | 4
COc1ccc(C(C(=O)NCc2ccccc2)N(Cc2cccs2)C(=O)c2cnccn2)cc1 (configuration not stated) | -5 | -3 | -1 | 1 | i | -78 | 19 | -5
Cc1cc(C)nc(Nc2nc(=O)c3ccccc3s2)n1 | . | 4 | 4 | 5 | i | . | . | 7
COc1ccccc1NS(=O)(=O)c1cccc(NC(=O)c2nc3nc(C)cc(C)n3n2)c1 | -9 | 8 | 0 | -1 | i | . | 2 | -13

Quoted at random: two entries already listed.
SMILES | CSC inhib | PABP polyA inh | MT1-MMP act inh | MT1-MMP act inh RFP | Rce1 inhib | HIV Env fusion | Yeast UUG start | eIF4H inh | others
CCOc1ccc2nc(N3CCOCC3)nc(C)c2c1 | -10 | 15 | -10 | -2 | i | . | -17 | -11
COc1cccc(CN(C)C(=O)Cc2c[nH]c3ccccc23)c1 | -1 | -8 | 3 | 1 | i | -13 | -5 | 4

More structures
SMILES | CSC inhib | PABP polyA inh | MT1-MMP act inh | MT1-MMP act inh RFP | Rce1 inhib | HIV Env fusion | Yeast UUG start | eIF4H inh | others
COc1ccc(NC(C)=O)cc1CNC(=O)CN1CCOCC1 | -12 | 3 | 4 | -3 | i | 12 | 1 | -1
O=c1oc2ccc3ccccc3c2cc1-c1nc2ccccc2o1 | 3 | . | -13 | 0 | i | . | 1 | .
Cc1ccc(S(=O)(=O)N2CCOCC2)cc1NC(=O)Cn1cc(C(F)(F)F)cc(Cl)c1=O | -10 | -6 | 4 | 3 | i | 20 | 0 | 2
O=C(NCC(c1cccnc1)N1CCOCC1)C1CCCCC1 (configuration not stated) | -2 | 0 | -2 | 1 | i | -1 | . | 7
Cc1ccc(S(=O)(=O)N(C)CC(=O)NCC(=O)Nc2ccc(F)c(F)c2F)cc1 | -13 | . | 3 | 3 | . | -4 | -9 | .
O=C(CSc1nnc(NC2CCCCC2)s1)Nc1ccc2c(c1)C(=O)c1ccccc1C2=O | 28 | 10 | -4 | -3 | i | -63 | . | 2
N#CC1=C(N)Oc2cc(O)ccc2C1c1ccc(Br)s1 (configuration not stated) | -2 | 4 | -140 | 0 | i | 5 | -11 | 0
CCOC(=O)C(=NC1CCS(=O)(=O)C1)NNc1ccc(Br)cc1 (configuration not stated) | -8 | 1 | 0 | 1 | i | 6 | -32 | -4
Cc1cnc(NC(=O)CSc2nc3ccccc3c(=O)[nH]2)s1 | -14 | 0 | 8 | 0 | i | . | -18 | 5
CC(C)CCN1C(=O)c2ccc(-c3nc4ccccc4c(=O)o3)cc2C1=O | -6 | -4 | 6 | 3 | i | . | -17 | -2
Cc1ccnc(NC(=O)c2sc3cc(Cl)ccc3c2Cl)c1 | 12 | -2 | 5 | 4 | i | . | . | -2
O=C(c1ccccc1)[C@H]1[C@H](c2ccccc2)[C@@]2(N=C(c3ccccc3)OC2=O)C2c3ccccc3C=NN21 (some centres not stated) | -8 | -4 | . | . | i | . | . | 2
CC1CN(C(=O)COC(=O)c2ccc(Cl)c(S(=O)(=O)N3CCCCC3)c2)CC(C)O1 (configuration not stated) | -10 | 4 | -1 | -3 | i | 16 | 17 | -6
CN1C(=O)c2ccc(NC(=O)c3ccc(Cl)cc3Cl)cc2C1=O | 12 | 10 | 4 | -2 | i | -12 | -11 | -11
COCCNC(=O)COc1ccc(Nc2ccccc2)cc1 | -5 | 11 | -3 | 1 | i | -32 | . | 1
Cc1cc(C)n(C(=O)COc2ccccc2[N+](=O)[O-])n1 | 1 | -7 | 3 | 4 | i | 4 | . | -8
CCN1C(=O)N[C@@H](CCc2ccccc2)[C@H](C(=O)OC)[C@H]1C | 5 | . | -1 | 1 | i | 20 | 15 | .
Cc1cccc(NC(=O)CSCC(=O)N(C)Cc2ccc(Cl)c(Cl)c2)c1 | 8 | . | -1 | 1 | . | . | 12 | .
COc1ccc(C2=NC(C)(C)Cc3cc(OC)c(OC)cc32)cc1 | 4 | -1 | -1 | -1 | i | -31 | . | -6
O=[N+]([O-])c1ccc(NC(=S)NCc2ccncc2)cc1 | -21 | 3 | 0 | -6 | i | 19 | . | -5
O=C(O)CCn1cc(C(=O)O)c(-c2ccccc2)n1 | -11 | 3 | -1 | 3 | i | 12 | . | 1
O=C(NCc1ccco1)c1ccc(S(=O)(=O)N2CCCc3ccccc32)cc1 | 4 | -4 | 3 | -7 | i | -13 | -2 | 1
CC1Cc2ccccc2N1C(=O)CCNS(=O)(=O)c1ccc2c(c1)CCC(=O)N2 (configuration not stated) | -5 | 16 | 12 | 0 | i | -28 | -12 | -8
COc1ccc(N2CCN(C(=O)[C@@H](NC(=O)c3cc(OC)cc(OC)c3)C(C)C)CC2)cc1 | 35 | 6 | -12 | -12 | i | 11 | -7 | 8
CCOC(=O)c1ccccc1NCN1C(=O)CSC1=O | -5 | 24 | -2 | 0 | i | -24 | 1 | -5
Cc1ccc([C@@H]2[C@@H]3C(=O)N(C)C(=O)[C@@H]3[C@]3(C)C(=O)N(Cc4ccc(-c5ccccc5)cc4)CC(=O)N23)o1 | -20 | 9 | 5 | 7 | i | 27 | 5 | 8
Cc1ccc(NC(=S)N(CCN(C)C)Cc2cc3cc(C)cc(C)c3[nH]c2=O)cc1 | -13 | 6 | 3 | 6 | i | -36 | . | -10
COc1ccc(S(=O)(=O)NCc2ccc(C(=O)NCCCN3CCCC(C)C3)cc2)cc1 (configuration not stated) | -4 | . | -1 | 1 | i | -4 | -4 | .
COc1ccc2c(Cl)c(-c3nnco3)sc2c1 | 14 | 5 | -1 | 2 | i | i | -4 | -1
Cc1ccc(N(Cc2ccccc2)C(=O)c2cccc(F)c2)cc1 | -6 | -4 | -1 | 4 | i | -56 | -3 | 2
Cc1ccc(NC(=O)C(c2ccccc2)N2CCN(CC(=O)NC3CC3)CC2)cc1 (configuration not stated) | . | . | 5 | 4 | . | -1 | -12 | .
Cc1c(C)c2ccc(OCC(=O)NCCCn3ccnc3)c(C)c2oc1=O | 6 | -9 | 2 | 1 | i | 5 | -12 | 4
COc1ccccc1N(C)S(=O)(=O)c1ccc(Cl)c(C(=O)NCc2cccnc2)c1 | -9 | . | 3 | 0 | i | 25 | -4 | .
Cc1cccc(C)c1OCc1nnc(SCC(=O)Nc2cccc(C(=O)N3CCOCC3)c2)n1C | -16 | -3 | -3 | 0 | i | 11 | -11 | 1
O=C(CC(C(=O)O)c1ccccc1)Nc1ccccc1 (configuration not stated) | -1 | 3 | 1 | 5 | i | 4 | -11 | 11
CC(=O)N(C(C)=O)N1C(=O)c2cccc3c(N4CCOCC4)ccc(c23)C1=O | . | 17 | -103 | 5 | i | -10 | . | ?
COC(=O)c1cc(Cl)c(NC(=O)c2ccco2)cc1OC | 3 | -5 | 11 | 8 | i | -307 | -10 | -12
CSc1ncccc1C(=O)OCC(=O)c1ccc(Br)s1 | -3 | 0 | 0 | 3 | i | 11 | . | -6
CN(C)/C=C/C(=O)c1ccc2noc(-c3ccc(F)cc3)c2c1 | -5 | 7 | -17 | -9 | i | 26 | -16 | 7
COc1ccc(Cl)cc1NC(=O)CNc1ccccc1N1CCOCC1 | 5 | -4 | 1 | 2 | . | -7 | -25 | -9
CCOC(=O)Cc1nnc(NC(=O)c2ccccc2OCC)s1 | 15 | -1 | 2 | 4 | i | . | -6 | -10
CS(=O)(=O)c1nc(S(=O)(=O)c2ccc(Cl)cc2)c(N2CCC3(CC2)OCCO3)s1 | -14 | -5 | 0 | 0 | i | 10 | -12 | -19
Cc1ccc(C)c(NC(=O)CS(=O)(=O)c2cccc3nsnc23)c1 | 2 | 6 | -1 | 4 | i | 5 | . | -5
O=C(Nc1ccccc1C(=O)Nc1ccc(F)cc1)c1ccco1 | 13 | 6 | -1 | 3 | i | 28 | -7 | -2
O=c1[nH]nc(SCc2ccccc2)c(=O)[nH]1 | -6 | -2 | 2 | 6 | i | -33 | -11 | 5
O=c1ccc2ccc(O[C@@H]3O[C@H](CO[C@@H]4OC[C@](O)(CO)[C@H]4O)[C@@H](O)[C@H](O)[C@H]3O)cc2o1 | -13 | . | -5 | 7 | . | 11 | -12 | .
COc1cc(C2c3c(n[nH]c3C)C(=O)N2c2ccc(C)cc2)ccc1O (configuration not stated) | -6 | -2 | -24 | -8 | i | -48 | -5 | 8
COc1ccc(N2CCN(S(=O)(=O)c3cn(C)cn3)CC2)cc1 | -5 | 5 | -1 | 2 | i | -1 | -7 | -2

Source: PubChem (several laboratories)
